Compound activity: PubChem, Broad Institute
FGF22 binding: binders of recombinant human FGF22 by thermal shift | Q9HCT0 | SYPRO orange fluorescence; percent of sucrose octasulfate shift, DMSO zero | calls only at 9.99 µM | 340,000 compounds, 1.5% hits | AID 651658;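 active = melting point raised past a set limit in the mean and every replicate; inconclusive = no clear call; three in four hits are not shown here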
Target sequence (Q9HCT0 whole entry, looked up): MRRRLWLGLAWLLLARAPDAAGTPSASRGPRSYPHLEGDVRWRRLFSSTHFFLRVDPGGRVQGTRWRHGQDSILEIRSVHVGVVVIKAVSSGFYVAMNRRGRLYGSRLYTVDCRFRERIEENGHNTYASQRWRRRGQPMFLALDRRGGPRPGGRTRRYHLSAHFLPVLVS
T cruzi inh: blocks replication of Trypanosoma cruzi; 300,000 compounds, 1.4% hits; T. cruzi beta-gal in NIH3T3, luminescence, 90 h; inhibition, % (test concentration not listed);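 active = mean inhibition across valid replicates above about 55%, limit read from the data; inconclusive = mean below that limit but half or more replicates reach it; inactive = mean below it, under half of replicates reach it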;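 also: signal also drops with host cell toxicity which is not excluded here; 0% = plate median of DMSO wells and 100% = zero luminescence signal; higher percent means less beta-gal luminescence so fewer parasites; stock transfer was 50 nL into about 50 µL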
Beta apoptosis: beta cell apoptosis inhibition; INS-1E cytokine-induced death, ATP luminescence, 48 h; percent of positive-control rescue, neutral wells zero; protection from apoptosis, % (concentration not given with the values); 300,000 compounds, 0.8% hits; AID 435005;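 active = all replicates at 75% or more, or half of them and the mean; inconclusive = half reach 75% but not the mean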;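 also: 0% = cytokine-treated negative control wells and 100% = positive control rescue; higher means more ATP so stronger rescue from cytokine killing; wells of about 40 µL received 100 nL stock; the first replicate is given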
rRNA inh HTS: inhibitors of bacterial rRNA selective over humanized ribosomes; GFP signal change (wild-type ribosome), % (concentration not given with the values); AID 720706; E. coli WT GFP vs humanized-ribosome RFP mutants, fluorescence, 24 h; stronger effect = lower value; DMSO median 0, no signal -100; 350,000 compounds, 1.6% hits;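 active = significant combined selectivity score with lowered wild-type GFP, culture density cut under 30%, mutant RFP and density less affected; inactive = any of these conditions unmet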; also: one replicate is shown; some compounds called inactive have numbers as strong as hits
RanGTP-Imp inh: inhibitors of RanGTP-importin-beta interaction, primary screen, biochemical, FRET, CFP-Ran, YFP-importin-beta, homogeneous; inhibition, % (concentration not given with the values); 300,000 compounds, 1.1% hits; cell-free CFP-Ran/YFP-importin-beta FRET ratio;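 active = most replicates above 15%; inconclusive = exactly half above 15%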;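 also: 0% = DMSO wells and 100% = Ran loaded with GDP instead of GTP; wells of about 40 µL received 100 nL stock; the first replicate is given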
Calb FLC: affects C. albicans growth with fluconazole | C. albicans CaCi-2 (fluconazole-resistant clinical isolate) + fluconazole, Alamar Blue growth, 48 h | growth inhibition, % (test concentration not listed) | 300,000 compounds, 0.57% hits;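 active = most replicates above 75%; inconclusive = exactly half above 75%; inactive = most below 75%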;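 also: all wells also contain fluconazole at 8 µg/ml as a sub-toxic cotreatment; 0% = median of DMSO wells and 100% = median of geldanamycin control wells; wells of about 8 µL received 7.5 nL stock; the first replicate is given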
MLL AF4-AF9 inh: MLL-AF4/AF9 protein interaction inhibition. P42568. AlphaScreen, biotin-AF4 peptide binding to FLAG-AF9. inhibition, % at 10 µM. 350,000 compounds, 0.47% hits. AID 651704;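 active = every replicate reaching a set inhibition limit, whatever the replicate mean, cut at about 25% in these data; inconclusive = mean inhibition reaches that limit but some replicates miss it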;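 also: 0% = plate neutral control median and 100% = total signal loss; the record names both 10 and 1 µM as test concentration; the first replicate is given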
Target sequence (P42568 whole entry, looked up): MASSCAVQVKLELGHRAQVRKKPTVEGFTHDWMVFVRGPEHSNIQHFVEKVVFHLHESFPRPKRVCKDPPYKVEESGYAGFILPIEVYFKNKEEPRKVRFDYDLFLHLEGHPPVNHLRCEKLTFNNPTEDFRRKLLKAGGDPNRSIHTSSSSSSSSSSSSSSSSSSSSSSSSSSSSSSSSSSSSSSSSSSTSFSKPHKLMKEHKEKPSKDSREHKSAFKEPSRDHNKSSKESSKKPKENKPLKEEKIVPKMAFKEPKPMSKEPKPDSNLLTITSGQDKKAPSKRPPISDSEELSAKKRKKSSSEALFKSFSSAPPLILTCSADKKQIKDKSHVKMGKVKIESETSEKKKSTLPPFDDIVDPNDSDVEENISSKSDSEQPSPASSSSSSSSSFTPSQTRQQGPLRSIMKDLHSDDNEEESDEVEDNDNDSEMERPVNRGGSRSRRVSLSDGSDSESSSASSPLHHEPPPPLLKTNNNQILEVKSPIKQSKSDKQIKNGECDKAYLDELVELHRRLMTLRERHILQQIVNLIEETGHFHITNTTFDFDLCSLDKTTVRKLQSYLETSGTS
ALR H2O2 inh: inhibitors of human sulfhydryl oxidase ALR. P55789. purified ALR, DTT oxidation, H2O2 HRP-luminol luminescence. inhibition, % (concentration not given with the values). 290,000 compounds, 3.8% hits;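 active = mean and each replicate at 75% or more; inconclusive = only one of the two met; inactive = neither met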;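 also: stock transfer was 7.5 nL into about 7.5 µL; 0% = neutral wells and 100% = wells with inactivated enzyme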
Target sequence (P55789 whole entry, looked up): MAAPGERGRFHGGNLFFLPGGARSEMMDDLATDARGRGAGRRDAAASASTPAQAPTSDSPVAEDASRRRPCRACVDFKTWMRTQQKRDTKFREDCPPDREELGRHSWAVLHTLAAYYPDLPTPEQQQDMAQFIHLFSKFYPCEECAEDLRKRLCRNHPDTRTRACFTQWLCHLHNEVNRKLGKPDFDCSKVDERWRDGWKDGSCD
rRNA inh HTS OD600: further read-out of rRNA inh HTS, marked with its call; OD600 change, %; measured here: OD600 growth;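 optical density of the mix in the first replicate; 0 = DMSO median and -100 = no signal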
rRNA inh HTS RFP: also measured in rRNA inh HTS; calls as there; RFP signal change, %; measured here: RFP humanized mutant strains;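 first replicate; 0 = DMSO median and -100 = no signal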
* = called active by the depositor. Some of the compounds tested; count on the stated rates, not on these rows.

A first look, two compounds:
What do the screens show for `CC(C)CN1C(=O)C(=O)N(CC(=O)N2CCC(Cc3ccccc3)CC2)C1=O`?
FGF22 binding: inactive; T cruzi inh: 9; Beta apoptosis: 2; rRNA inh HTS: 4; RanGTP-Imp inh: -1.1; Calb FLC: 7; MLL AF4-AF9 inh: -1.3; ALR H2O2 inh: -6; rRNA inh HTS OD600: 1; rRNA inh HTS RFP: 2.6

How did COc1ccccc1N1CCN(C2CCCC(C)C2)CC1 (stereo not drawn) do in these assays?
FGF22 binding: inactive; T cruzi inh: -17; Beta apoptosis: -23; rRNA inh HTS: 8; RanGTP-Imp inh: 1.9; Calb FLC: -25; MLL AF4-AF9 inh: 6.4; ALR H2O2 inh: -2; rRNA inh HTS OD600: 1; rRNA inh HTS RFP: -0.2

The whole of this part (from the top)
What do the screens show for `CC(C)CN1C(=O)C(=O)N(CC(=O)N2CCC(Cc3ccccc3)CC2)C1=O`?
FGF22 binding: inactive; T cruzi inh: 9; Beta apoptosis: 2; rRNA inh HTS: 4; RanGTP-Imp inh: -1.1; Calb FLC: 7; MLL AF4-AF9 inh: -1.3; ALR H2O2 inh: -6; rRNA inh HTS OD600: 1; rRNA inh HTS RFP: 2.6

How did COc1ccccc1N1CCN(C2CCCC(C)C2)CC1 (stereo not drawn) do in these assays?
FGF22 binding: inactive; T cruzi inh: -17; Beta apoptosis: -23; rRNA inh HTS: 8; RanGTP-Imp inh: 1.9; Calb FLC: -25; MLL AF4-AF9 inh: 6.4; ALR H2O2 inh: -2; rRNA inh HTS OD600: 1; rRNA inh HTS RFP: -0.2

How did CCc1cc2c(CN3CCN(CCO)CC3)cc(=O)oc2cc1O do in these assays?
T cruzi inh: 22; RanGTP-Imp inh: 113*; Calb FLC: -4; ALR H2O2 inh: 2

Results for CC(=O)N=c1n(C)c2ccccc2n1CCOc1ccccc1 ?
FGF22 binding: inactive; T cruzi inh: -8; rRNA inh HTS: 15; RanGTP-Imp inh: -1.1; Calb FLC: 0; MLL AF4-AF9 inh: 0.6; ALR H2O2 inh: 1; rRNA inh HTS OD600: 7; rRNA inh HTS RFP: -3.1

What do the screens show for `Cc1ccc(SC/C(O)=C(\C#N)c2nc3ccccc3n2C)cc1`?
T cruzi inh: 14; Beta apoptosis: -6; RanGTP-Imp inh: inconclusive; Calb FLC: 0; ALR H2O2 inh: -9

Results for C/C=C/c1ccc(OCCOCCNCc2ccccc2)c(OC)c1 ?
FGF22 binding: inactive; T cruzi inh: 27; rRNA inh HTS: -5; RanGTP-Imp inh: -2.8; Calb FLC: -2; MLL AF4-AF9 inh: 12; ALR H2O2 inh: -14; rRNA inh HTS OD600: -7; rRNA inh HTS RFP: 0.4

What do the screens show for `CC(C)N1C(=S)SC(C)(C)C1NO` (stereo not drawn)?
T cruzi inh: -2; Beta apoptosis: -5; RanGTP-Imp inh: 2.4; Calb FLC: -4; ALR H2O2 inh: -1

Results for O=c1cc(CN2CCC(Cc3ccccc3)CC2)nc2sccn12 ?
FGF22 binding: inactive; T cruzi inh: 9; Beta apoptosis: -7; rRNA inh HTS: 7; RanGTP-Imp inh: 1.9; Calb FLC: -6; MLL AF4-AF9 inh: -0.3; ALR H2O2 inh: 2; rRNA inh HTS OD600: 1; rRNA inh HTS RFP: 1.9

What do the screens show for `O=C1c2ccccc2CCC12N=NCC2c1ccccc1` (stereo not drawn)?
T cruzi inh: -1; Beta apoptosis: -2; RanGTP-Imp inh: 2.5; Calb FLC: -12; ALR H2O2 inh: -52

How did CCOC(=O)Cn1nc(C)n(-c2ccc(C(C)C)cc2)c1=O do in these assays?
T cruzi inh: -5; Beta apoptosis: 1; RanGTP-Imp inh: -3.1; Calb FLC: inconclusive; ALR H2O2 inh: -4

Results for CCOC(=O)C1CCN(C(=O)C2COc3ccccc3O2)CC1 (stereo not drawn) ?
FGF22 binding: inactive; T cruzi inh: 0; Beta apoptosis: 0; rRNA inh HTS: 4; RanGTP-Imp inh: -2.6; Calb FLC: -1; MLL AF4-AF9 inh: 0.5; ALR H2O2 inh: 2; rRNA inh HTS OD600: 11; rRNA inh HTS RFP: -3.0

Results for COc1ccc2[nH]cc(CC(=O)O)c2c1 ?
FGF22 binding: inactive; rRNA inh HTS: 0; MLL AF4-AF9 inh: -1.9; ALR H2O2 inh: 4; rRNA inh HTS OD600: 10; rRNA inh HTS RFP: 10

Results for CCN1c2ccccc2NC2C1C(C(C)=O)C(=O)N2c1ccc(Cl)cc1 (stereo not drawn) ?
FGF22 binding: inactive; T cruzi inh: 17; rRNA inh HTS: -15; RanGTP-Imp inh: 11; Calb FLC: 19; MLL AF4-AF9 inh: 3.2; ALR H2O2 inh: -32; rRNA inh HTS OD600: -15; rRNA inh HTS RFP: 7.4

Results for Cc1cc(C)c2cc(C#N)c(NCCCNC(=O)CCC(=O)O)nc2c1 ?
T cruzi inh: -9; Beta apoptosis: -2; RanGTP-Imp inh: inconclusive; Calb FLC: 14; ALR H2O2 inh: -7

Results for CCCCCCN(C(=O)CCCCCN1C(=O)NC(c2ccc(-c3ccccc3)cc2)C(C(=O)OCc2ccccc2)=C1C)C(C(=O)NCCCC)c1ccc(-c2ccccc2)cc1 (stereo not drawn) ?
T cruzi inh: -4; rRNA inh HTS: 6; RanGTP-Imp inh: -0.4; Calb FLC: -1; MLL AF4-AF9 inh: -1.0; rRNA inh HTS OD600: 7; rRNA inh HTS RFP: -4.9

How did COc1ccccc1CNC(=O)COC(=O)c1ccc(Cl)c(N)c1 do in these assays?
FGF22 binding: inactive; T cruzi inh: -10; Beta apoptosis: -11; rRNA inh HTS: 5; RanGTP-Imp inh: -2.0; Calb FLC: -6; MLL AF4-AF9 inh: 1.5; ALR H2O2 inh: 1; rRNA inh HTS OD600: 3; rRNA inh HTS RFP: 0.7

Results for O=C(COc1ccccc1)Nc1ccc2c(c1)C(=O)N(CC1CCCO1)C2=O (stereo not drawn) ?
FGF22 binding: inactive; T cruzi inh: -16; Beta apoptosis: 0; rRNA inh HTS: 1; RanGTP-Imp inh: -2.6; Calb FLC: 20; MLL AF4-AF9 inh: -1.2; rRNA inh HTS OD600: 14; rRNA inh HTS RFP: -1.6

How did O=C(C1Cc2ccccc2CN1S(=O)(=O)c1ccc(F)cc1)N1CCOCC1 (stereo not drawn) do in these assays?
FGF22 binding: inactive; T cruzi inh: -13; Beta apoptosis: -8; rRNA inh HTS: -11; RanGTP-Imp inh: 2.8; Calb FLC: 32; MLL AF4-AF9 inh: 6.2; ALR H2O2 inh: 0; rRNA inh HTS OD600: -3; rRNA inh HTS RFP: -9.3

How did Cc1cccc(C(=O)NNC(=S)NC(=O)c2cccs2)c1 do in these assays?
FGF22 binding: inactive; T cruzi inh: -7; rRNA inh HTS: -57; RanGTP-Imp inh: -0.3; Calb FLC: 102*; MLL AF4-AF9 inh: -13; ALR H2O2 inh: 36; rRNA inh HTS OD600: -79; rRNA inh HTS RFP: -19

How did CCOc1ncccc1C(=O)OCC(=O)c1cc(OC)ccc1OC do in these assays?
FGF22 binding: inactive; T cruzi inh: -5; Beta apoptosis: -8; rRNA inh HTS: -1; RanGTP-Imp inh: -2.9; Calb FLC: 7; MLL AF4-AF9 inh: -3.0; ALR H2O2 inh: 9; rRNA inh HTS OD600: -7; rRNA inh HTS RFP: 0.4

Results for Fc1ccc(CSc2nc3ccccc3[nH]2)c2ccccc12 ?
T cruzi inh: 32; Beta apoptosis: 1; RanGTP-Imp inh: -2.9; Calb FLC: 6; ALR H2O2 inh: 2

How did O=C(NCc1ccccc1)OCCN1CCN(Cc2ccccc2)CCC1=O do in these assays?
FGF22 binding: inactive; T cruzi inh: -4; Beta apoptosis: -14; rRNA inh HTS: -6; RanGTP-Imp inh: 9.2; Calb FLC: 5; MLL AF4-AF9 inh: -5.3; ALR H2O2 inh: 0; rRNA inh HTS OD600: -3; rRNA inh HTS RFP: -2.7

Results for Cc1cc(=S)nc(-c2ccccn2)[nH]1 ?
FGF22 binding: inactive; T cruzi inh: 19; Beta apoptosis: 11; RanGTP-Imp inh: 7.1; Calb FLC: 1; MLL AF4-AF9 inh: -9.1; ALR H2O2 inh: 13

What do the screens show for `Cc1ccc(C(=O)NCCNS(C)(=O)=O)cc1`?
FGF22 binding: inactive; T cruzi inh: -3; Beta apoptosis: -3; rRNA inh HTS: 12; RanGTP-Imp inh: 0.8; Calb FLC: -25; MLL AF4-AF9 inh: 2.5; ALR H2O2 inh: -13; rRNA inh HTS OD600: 15; rRNA inh HTS RFP: -2.8

How did COc1cc(OC)cc(C(=O)Nc2ccc(-c3nc4ccccc4o3)c(O)c2)c1 do in these assays?
T cruzi inh: 13; Beta apoptosis: 8; RanGTP-Imp inh: -2.4; Calb FLC: -14; ALR H2O2 inh: -6

What do the screens show for `COc1cc(NC(=O)C2CCCN2S(=O)(=O)c2cccc3cccnc23)cc(OC)c1OC` (stereo not drawn)?
FGF22 binding: inactive; T cruzi inh: -3; Beta apoptosis: 1; rRNA inh HTS: 2; RanGTP-Imp inh: -0.5; Calb FLC: -2; MLL AF4-AF9 inh: -1.8; ALR H2O2 inh: -13; rRNA inh HTS OD600: 1; rRNA inh HTS RFP: -1.7

Results for CC(C)(C)C(=O)Nc1ccc(-c2cnco2)cc1 ?
FGF22 binding: inactive; T cruzi inh: 9; Beta apoptosis: -1; rRNA inh HTS: 8; RanGTP-Imp inh: 3.6; Calb FLC: 23; MLL AF4-AF9 inh: -8.6; ALR H2O2 inh: 2; rRNA inh HTS OD600: 6; rRNA inh HTS RFP: 1.0

How did CN(C)c1ccc(C(=O)Nc2nnc(-c3ccc(Cl)cc3)o2)cc1 do in these assays?
FGF22 binding: inactive; T cruzi inh: 16; Beta apoptosis: 5; rRNA inh HTS: -44; RanGTP-Imp inh: 2.5; Calb FLC: 10; MLL AF4-AF9 inh: -4.5; ALR H2O2 inh: -2; rRNA inh HTS OD600: -56; rRNA inh HTS RFP: -15

How did Cc1cc(CCN2CCC(=O)NC2=O)ccc1OC(C)C do in these assays?
FGF22 binding: inactive; T cruzi inh: 13; Beta apoptosis: -2; rRNA inh HTS: -2; RanGTP-Imp inh: -3.4; Calb FLC: 6; MLL AF4-AF9 inh: -37; ALR H2O2 inh: -1; rRNA inh HTS OD600: 0; rRNA inh HTS RFP: -1.6

Results for Cc1c(Br)c([N+](=O)[O-])nn1CC(=O)NCc1cccs1 ?
T cruzi inh: -1; Beta apoptosis: 8; RanGTP-Imp inh: 4.7; Calb FLC: -4; ALR H2O2 inh: -4

What do the screens show for `Cc1cccc(-c2nnc(SCC#N)n2Cc2ccccc2)c1`?
T cruzi inh: -10; Beta apoptosis: -1; RanGTP-Imp inh: 1.5; Calb FLC: 7; ALR H2O2 inh: -1

What do the screens show for `O=C(Nc1cccc(S(=O)(=O)NC2=NCCC2)c1)c1cn(-c2ccccc2)nc1-c1ccc(F)cc1`?
FGF22 binding: inactive; Beta apoptosis: 8; rRNA inh HTS: -7; MLL AF4-AF9 inh: 2.4; rRNA inh HTS OD600: -12; rRNA inh HTS RFP: 1.7

Results for COc1ccccc1/C=C1\SC(=S)N(CCC(=O)NNC(=O)c2ccccc2O)C1=O ?
T cruzi inh: -2; Beta apoptosis: -7; RanGTP-Imp inh: -0.9; Calb FLC: -6; ALR H2O2 inh: -6
